INS promoter inh: TRM-6 insulin promoter activity inhibition; AID 1273; TRM-6 cells (human fetal islet line), insulin promoter-eGFP reporter, imaging; reporter expression induced with tamoxifen; hit rate 0.9% among 130,000; inhibition, % at 2 µM;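 active = inhibition above the mean plus 3 SD, with well images judged a real hit on visual review, cut at about 60% in these data, passing the limit was not always enough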
PKD1 inh: blocks activity of human protein kinase D1 | inhibition, %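 (about 10 µM by stock and volumes)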 | hit rate 0.056% among 200,000 | PKD1 kinase fluorescence polarization assay | Q15139 | AID 797;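 active = inhibition of 50% or more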;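 note: controls were vehicle for no effect and a reference inhibitor for full effect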
Target sequence (Q15139 whole entry, looked up): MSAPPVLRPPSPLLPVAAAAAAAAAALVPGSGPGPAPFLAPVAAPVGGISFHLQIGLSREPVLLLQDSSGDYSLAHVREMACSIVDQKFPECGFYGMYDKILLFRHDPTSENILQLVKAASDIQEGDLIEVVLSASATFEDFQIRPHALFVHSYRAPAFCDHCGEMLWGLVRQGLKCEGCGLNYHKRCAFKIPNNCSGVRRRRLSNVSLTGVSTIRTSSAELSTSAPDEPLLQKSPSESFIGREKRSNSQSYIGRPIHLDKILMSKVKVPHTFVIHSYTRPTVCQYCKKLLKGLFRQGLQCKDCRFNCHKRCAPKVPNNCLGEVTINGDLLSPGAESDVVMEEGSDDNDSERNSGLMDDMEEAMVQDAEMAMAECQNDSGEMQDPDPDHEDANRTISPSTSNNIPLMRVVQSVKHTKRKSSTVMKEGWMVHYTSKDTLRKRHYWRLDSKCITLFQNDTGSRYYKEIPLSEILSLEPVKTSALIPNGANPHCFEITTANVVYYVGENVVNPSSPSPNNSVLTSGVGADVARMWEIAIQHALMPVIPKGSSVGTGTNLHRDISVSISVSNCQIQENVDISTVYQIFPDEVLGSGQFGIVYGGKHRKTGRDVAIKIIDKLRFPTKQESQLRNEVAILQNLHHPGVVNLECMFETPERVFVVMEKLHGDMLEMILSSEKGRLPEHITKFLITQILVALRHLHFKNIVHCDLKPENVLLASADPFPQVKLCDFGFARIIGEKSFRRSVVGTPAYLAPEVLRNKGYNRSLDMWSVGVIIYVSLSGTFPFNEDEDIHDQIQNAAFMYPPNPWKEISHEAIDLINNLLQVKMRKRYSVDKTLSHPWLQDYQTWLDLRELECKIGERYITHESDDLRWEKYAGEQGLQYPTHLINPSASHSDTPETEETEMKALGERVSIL
GALR2 ag: agonists of human galanin receptor 2 (GALR2). hit rate 0.48% among 140,000. GALR2-expressing cells, agonist activation read-out. AID 803. activation, %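 (tested at 5 µM)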;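 active = above mean plus 3 SD of all compounds, about 5% in these data, not always enough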;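 note: 0% = vehicle buffer wells and 100% = reference agonist at full effect; tested in CHO reporter cells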
RGS16-Gao: modulates binding between human RGS16 and Galphao | bead-based flow cytometry RGS16-Galphao binding, fluorescence; actives lie on both sides | binding response (% of control), % at 10 µM | hit rate 0.38% among 220,000 | O15492+P09471 | AID 1441;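 active = below 25% or above 175%, edge rows of some plates excepted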;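 note: Galphao activated by GDP with aluminum fluoride before binding; 100% = wells without compound and 0% = beads without RGS; some results beyond the cut were filed as inactive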
HSV replic up: HSV replication enhancement. HSV replication augmentation in cells, fold increase. maximum fold increase. hit rate 0.005% among 220,000. AID 1956;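 active = peak rise of 1.5-fold or more in the series; tested in PC3 cells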;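 note: first round at 10 µM; read as green reporter fluorescence; hits show the peak of a series up to 25 µM; 1 = signal of infected wells without compound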
INS promoter inh cell count: second read-out of INS promoter inh, no call of its own (marks repeat the call); normalized cell count, %; measured here: cell count, toxicity; reference of the scale not given here;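 cells exposed to compound for 48 h; stained nuclei by imaging scaled within each plate; lower means fewer cells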
HSV replic up primary fold: also measured in HSV replic up; calls as there; fold increase; compound at 10 µM; measured here: primary screen fold increase 10 uM; tested in PC3 cells;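 GFP signal in the first replicate; 1 = infected wells without compound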
Starred values were filed as active, the others as inactive; i = inactive; x = no result given; [ ] = dose if it differs, or a comment. No enrichment for hits; 1.3% or so of the library scored in one or more.

SMILES	INS promoter inh	INS promoter inh cell count	PKD1 inh	GALR2 ag	RGS16-Gao	HSV replic up	HSV replic up primary fold
Cc1nn(C)c(Cl)c1NC(=O)OCc1ccc(Cl)cc1Cl	13	117	-3	-0.3	98	x	x
CC(C)CC(NC(N)=O)C(=O)NCc1ccccc1Cl (stereo not given)	x	x	-2	x	100	i	0.95
O=C(C1=C[C@H](c2coc3ccccc3c2=O)C[C@H](OCc2ccc(CO)cc2)O1)N1CCOCC1	x	x	6	x	93	i	0.81
CSc1ccccc1N=CC1=C(O)CC(C)(C)CC1=O	-17	91	-4	-1.4	102	i	1.1
CC(=O)N1CCN(c2ccc([N+](=O)[O-])c(NCc3cccnc3)c2)CC1	x	x	1	x	99	i	0.99
COc1cccc(NC(=O)NC2CCN(Cc3nnnn3Cc3ccc(F)cc3)CC2)c1	x	x	-3	-0.2	102	i	1.3
O=C(N/N=C/c1ccc(-c2ccccc2[N+](=O)[O-])o1)c1cccnc1	19	107	0	-1.6	120	i	1.1
CCOCCCNC(=O)C(NC(=O)CNC(C)=O)c1ccc(C)cc1 (stereo not given)	17	99	-4	-1.8	91	i	0.91
O=S(=O)(c1ccc2ccccc2c1)N1CCN(C(=S)Nc2ccccc2F)CC1	x	x	x	x	100	i	1
COc1ccccc1/C=C/C=N/NC(=O)CCC1C(=O)NN=C1C (stereo not given)	38	91	4	-0.8	20	i	0.93
O=C(C1=C(O)C(=O)N(Cc2ccco2)C1c1ccccc1F)c1cccs1 (stereo not given)	5	96	-8	x	100	i	1.2
CC(C)[C@H](NS(=O)(=O)c1ccc2c(c1)OCCO2)C(=O)OCC(=O)Nc1cccc(Cl)c1Cl	x	x	-6	-1.0	102	i	1
COC(=O)c1[nH]c2cccc(OC)c2c1NC(=O)CN1CCC(C(N)=O)(N2CCCCC2)CC1	-42	74	-13	-1.4	109	i	1.1
C#CCOCCOCCOCCNc1nc(N2CCN(C(=O)[C@H](C(C)C)n3cc(CCO)nn3)CC2)nc(N2CCN(C(=O)[C@H]([C@@H](C)CC)n3cc(CCCCN)nn3)CC2)n1	20	109	-2	-0.3	111	i	0.73
Cc1[nH]n2c(=O)cc(-c3ccc([N+](=O)[O-])cc3)nc2c1-c1ccccc1	42	120	1	-4.4	x	i	1
CCCCNC(=O)CS(=O)Cc1nc(-c2ccc(C)cc2)oc1C (stereo not given)	x	x	11	-1.7	108	i	1.1
CCC(C(=O)NC1CCCCC1)N(Cc1cccs1)C(=O)c1snc(C(N)=O)c1N (stereo not given)	x	x	-9	x	100	i	1
COc1ccc(NC(=O)CC(NCc2ccccn2)C(=O)O)cc1 (stereo not given)	x	x	5	x	111	i	1.1
CCC(C(=O)NCc1ccccc1OC)n1nc(C)n2c(cc3occc32)c1=O (stereo not given)	-61	115	4	-0.4	95	i	0.85
O=C(O)CCC(=O)Nc1ccc(-c2nnc(-c3ccco3)o2)cc1	x	x	-6	-0.3	101	i	0.83
Cc1ccccc1C(=O)Nc1nnc(SC(C)C)s1	29	105	-5	x	94	i	0.93
COc1ccc(OCC(O)CNC(=O)c2ccc(Br)cc2)cc1 (stereo not given)	5	82	-3	-0.3	111	i	0.97
CCCCN(C)CCNC(=O)c1ccc(Cn2c(=S)[nH]c3ccc(Br)cc3c2=O)cc1	-25	113	-4	x	106	i	0.78
C=C(C)CSc1nc2ccccc2c(=O)n1-c1c(C)n(C)n(-c2ccccc2)c1=O	-7	175	1	x	101	x	x
NC(=O)c1ccc(C(F)(F)F)n(Cc2ccccc2Cl)c1=O	26	72	-5	-0.1	103	i	0.9
CCc1nnc(NC(=O)CN2CCN(c3cccc(OC)c3)CC2)s1	-187	95	-7	-2.2	132	i	0.57
COc1ccc(NC(=O)c2ccccc2[N+](=O)[O-])cc1	27	121	-2	-0.7	104	i	1.1
C=C(C)COc1ccc(-c2[nH]ncc2-c2ccccc2OC)c(O)c1	69	73	9	-2.0	97	i	0.59
Cc1ccc(NC(=O)c2cc(C)n(-c3ccccc3)c2C)cc1	x	x	-10	-0.5	103	i	0.73
CNC(=S)N/N=C(\C)c1cccc(C(F)(F)F)c1	x	x	0	x	102	i	0.88

3 compounds from above, sorted by the value under PKD1 inh, lowest first.
mol,PKD1 inh
CCc1nnc(NC(=O)CN2CCN(c3cccc(OC)c3)CC2)s1,-7
CCCCN(C)CCNC(=O)c1ccc(Cn2c(=S)[nH]c3ccc(Br)cc3c2=O)cc1,-4
COc1ccc(NC(=O)c2ccccc2[N+](=O)[O-])cc1,-2

(next part)
SMILES	INS promoter inh	INS promoter inh cell count	PKD1 inh	GALR2 ag	RGS16-Gao	HSV replic up	HSV replic up primary fold
COc1ccc(NC(=O)CSc2nnc(N)n2CC(=O)Nc2ccc(OC)cc2)cc1	-21	47	-5	x	102	i	0.91
O=C(c1coc2ccccc2c1=O)N1CCN(c2cccc(C(F)(F)F)c2)CC1	-36	88	2	-2.1	104	x	x
CCOC(=O)CNC(=S)N(Cc1ccccc1)Cc1cccnc1	-7	147	3	x	98	i	0.83
CCCN(CCC)S(=O)(=O)c1ccc(C(=O)NNC(=O)c2cc(OC)c(OC)c(OC)c2)cc1	x	x	x	x	98	i	0.99
O=C(c1ccccc1)C1CCN(CC(=O)N2CCN(c3ccccc3)CC2)CC1	x	x	-4	x	107	i	0.97
O=C1CCC(NC(=O)c2ccccc2)C(=O)N1 (stereo not given)	x	x	x	x	100	i	1
CCCC(NC(=O)c1ccco1)c1nc2ccccc2[nH]1 (stereo not given)	-6	104	-1	-1.8	107	i	0.99
OCCN(CCO)CC(O)CN(c1ccccc1)c1ccccc1 (stereo not given)	x	x	x	x	104	i	1
COC(=O)c1nnn(-c2nonc2N)c1CSc1ccccn1	x	x	3	-0.4	130	i	0.81
O=C(Nc1ccccc1)Nc1ccc(Oc2ncnc3cc(Cl)ccc23)nc1	x	x	x	x	103	i	0.99
CCn1c(CNc2ccc(F)cc2)nnc1SCC#N	x	x	-8	x	72	i	1
CCSc1nnc(NC(=O)COc2ccc(Cl)cc2)s1	-22	97	1	x	101	i	1.2
CCOC(=O)C1CCCN(c2c(Nc3ccc(OCC)cc3)c(=O)c2=O)C1 (stereo not given)	x	x	-17	-1.6	60	i	1
Cc1cc(C)cc(OCC(=O)N/N=C\c2cn(C)nc2C)c1	-36	77	-2	-0.4	115	i	0.99
COc1cc(NC(=O)CCc2c(C)nc3nc(C)nn3c2C)cc(OC)c1	x	x	-6	-2.9	99	i	1.1

Pulled by compound from the entries so far (five):
SMILES	INS promoter inh	INS promoter inh cell count	PKD1 inh	GALR2 ag	RGS16-Gao	HSV replic up	HSV replic up primary fold
O=C(c1ccccc1)C1CCN(CC(=O)N2CCN(c3ccccc3)CC2)CC1	x	x	-4	x	107	i	0.97
COC(=O)c1nnn(-c2nonc2N)c1CSc1ccccn1	x	x	3	-0.4	130	i	0.81
CCSc1nnc(NC(=O)COc2ccc(Cl)cc2)s1	-22	97	1	x	101	i	1.2
CCOC(=O)C1CCCN(c2c(Nc3ccc(OCC)cc3)c(=O)c2=O)C1 (stereo not given)	x	x	-17	-1.6	60	i	1
O=C(Nc1ccccc1)Nc1ccc(Oc2ncnc3cc(Cl)ccc23)nc1	x	x	x	x	103	i	0.99

(listing goes on)
SMILES	INS promoter inh	INS promoter inh cell count	PKD1 inh	GALR2 ag	RGS16-Gao	HSV replic up	HSV replic up primary fold
O=C(CSc1nc(-c2ccccc2Cl)ns1)NCc1ccco1	6	93	-1	-0.1	114	i	0.95
C=CCNc1cc(C)oc(=O)c1C(=O)CCC	42	124	3	-2.0	93	i	0.72
CN=C(Nc1cc(C)nn1-c1ccccc1)c1ccccc1	28	62	-10	1.2	90	i	0.8
O=C(Nc1ccc(NC(=O)C2CC2)nc1)c1cccs1	x	x	-8	-1.6	102	i	0.89
CC(C)(C)C(=O)Nc1ccc(C(=O)NCc2cccnc2)cc1	-17	75	-10	-1.6	101	i	0.95
O=C(Cc1ccc(Cl)cc1)NNC(=O)Nc1cccc2ccccc12	x	x	2	-0.8	104	i	1.1
CCN(CC)C1=N/C(=C\c2ccc(OC)cc2)C(=O)N1c1ccccc1	x	x	-1	4.4	106	i	0.96
COc1ccc(CCNC(=O)CN(C)S(=O)(=O)c2ccc(Br)s2)cc1OC	-93	134	-7	-1.6	241*[activator]	i	1
CCn1nc(C)cc1C(=O)Sc1cccc(Br)c1	x	x	x	x	98	i	1
Cc1ccc2cc(CN(Cc3ccco3)C(=O)NCc3ccccc3)c(=O)[nH]c2c1C	-160	137	1	-0.6	112	i	0.96
Cc1nnc(SCCN2C(=O)c3ccccc3C2=O)[nH]c1=O	28	153	-4	0.8	108	i	1
COc1ccc(NC(=O)CSc2ccc3ccccc3c2)cc1S(=O)(=O)N1CCCCC1	19	106	4	-2.0	96	i	0.78
Cn1ccnc1SCC(=O)c1ccc([N+](=O)[O-])cc1	x	x	-6	x	101	i	0.96
O=C(Cc1cccs1)N(CC1CCCO1)C1(C(=O)NC2CCCC2)CCCCC1 (stereo not given)	x	x	-11	x	100	i	1
Cc1cc(N(C)/N=C/c2ccccc2O)nc(-c2ccccc2O)n1	-78	52	-12	x	107	i	0.98

Complete entries as entered above. Values in the order: INS promoter inh, INS promoter inh cell count, PKD1 inh, GALR2 ag, RGS16-Gao, HSV replic up, HSV replic up primary fold
`O=C(Cc1ccc(Cl)cc1)NNC(=O)Nc1cccc2ccccc12` across the screens: x, x, 2, -0.8, 104, i, 1.1
`CN=C(Nc1cc(C)nn1-c1ccccc1)c1ccccc1` across the screens: 28, 62, -10, 1.2, 90, i, 0.8

Continuation:
SMILES	INS promoter inh	INS promoter inh cell count	PKD1 inh	GALR2 ag	RGS16-Gao	HSV replic up	HSV replic up primary fold
CN(C)CCOCCOc1ccc(Cl)cc1C(C)(C)C	x	x	3	x	88	i	0.87
Cc1cc(C(F)F)n2nc(C(=O)O)nc2n1	x	x	-8	-0.2	102	i	0.78
O=C(NCCN1CCOCC1)c1cnn2c1NC(c1cccs1)CC2C(F)(F)F (stereo not given)	-12	132	-7	x	101	i	0.99
Cc1ccc(N2CCN(C(=S)c3ccc(N(C)C)cc3)CC2)cc1	-25	102	-5	-3.0	93	i	0.75
COc1ccc(C(=O)NCCNc2ccccc2[N+](=O)[O-])cc1	x	x	-5	x	98	i	0.98
Cc1cc(NC(=O)CCSc2ccccc2)ccc1Br	-10	114	1	-2.2	49	i	1
COc1ccc(OC)c(-n2c(=S)[nH]c3cc(C(=O)N(C)Cc4ccccc4)ccc3c2=O)c1	-47	108	2	x	110	i	0.99
Cc1ccc(/C=N/N(Cc2ccccc2)c2ccccc2)o1	-8	65	0	x	102	i	1.1
O=C(NCCN1CCN(c2ccccc2F)CC1)C1CCCN(S(=O)(=O)c2cnc[nH]2)C1 (stereo not given)	x	x	-10	-2.2	111	x	x

Printed as active in RGS16-Gao, of those listed so far:
Structure	PKD1 inh	GALR2 ag	RGS16-Gao	HSV replic up	HSV replic up primary fold
COc1ccc(CCNC(=O)CN(C)S(=O)(=O)c2ccc(Br)s2)cc1OC	-7	-1.6	241*[activator]	i	1
